RecA splice inh = Mtb RecA intein splicing inhibitors, primary screen, biochemical, fluorescence, HTS; cell-free RecA intein splicing; 0.75% of 290,000 active; inhibition, %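 (about 9 µM by stock and volumes)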; Protein RecA (Mycobacterium tuberculosis (strain ATCC 25618 / H37Rv)), P9WHJ3; AID 2221, 2009; in the data active = inhibition above about 30%; inconclusive = no clear call, values can overlap the other calls;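 note: 0% = vehicle wells and 100% = reference inhibitor control wells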
Target sequence (P9WHJ3 whole entry, looked up, canonical isoform): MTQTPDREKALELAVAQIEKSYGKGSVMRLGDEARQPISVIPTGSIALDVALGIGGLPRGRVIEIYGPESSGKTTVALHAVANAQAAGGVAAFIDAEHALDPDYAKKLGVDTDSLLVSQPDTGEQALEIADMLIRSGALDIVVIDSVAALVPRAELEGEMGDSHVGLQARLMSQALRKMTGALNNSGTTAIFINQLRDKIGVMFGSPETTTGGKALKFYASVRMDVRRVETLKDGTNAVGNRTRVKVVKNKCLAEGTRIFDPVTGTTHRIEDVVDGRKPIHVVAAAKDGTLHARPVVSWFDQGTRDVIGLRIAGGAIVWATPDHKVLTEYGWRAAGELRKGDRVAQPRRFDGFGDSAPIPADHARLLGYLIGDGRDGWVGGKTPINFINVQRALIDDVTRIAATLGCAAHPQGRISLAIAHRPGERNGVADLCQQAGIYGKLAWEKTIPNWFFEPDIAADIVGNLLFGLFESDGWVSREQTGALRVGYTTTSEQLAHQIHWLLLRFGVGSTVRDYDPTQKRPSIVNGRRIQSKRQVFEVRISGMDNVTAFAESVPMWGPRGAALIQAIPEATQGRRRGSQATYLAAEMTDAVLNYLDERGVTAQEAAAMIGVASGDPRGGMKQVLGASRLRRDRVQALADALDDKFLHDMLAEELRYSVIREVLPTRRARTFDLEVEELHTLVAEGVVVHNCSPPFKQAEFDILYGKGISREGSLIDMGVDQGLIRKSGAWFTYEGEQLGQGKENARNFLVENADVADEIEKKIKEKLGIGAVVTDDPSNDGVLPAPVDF
Mtb growth = M. tuberculosis H37Rv growth inhibitors, H37Rv strain (AID 1626). M. tuberculosis H37Rv growth inhibition; higher % means a stronger effect. inhibition, % at 10 µM, or IC50 in µM where a hit was titrated. 0.95% of 220,000 active;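 active = confirmed in a dose series; inconclusive = inhibition above 80% but not taken into the dose series; inactive = below 80% or under 30% at every dose of the series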;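 note: bacteria incubated seven days before Alamar blue readout; 0% = bacteria only wells and 100% = bacteria with antibiotic wells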
YopH inh = YopH tyrosine phosphatase inhibitors, primary screen, biochemical, fluorescence Ex485/Em525; 0.16% of 140,000 active; YopH tyrosine phosphatase [Yersinia enterocolitica]; inhibition, %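 (about 10 µM by stock and volumes)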; AID 898, 2007;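 active = inhibition of 50% or more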;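 note: controls were vehicle for no effect and minimum signal wells for full effect; inactives centre near -20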
Mtb bLac sens = beta-lactam sensitization of Mtb H37Rv, H37Rv; 0.27% of 330,000 active; AID 434955, 2010; inhibition, % at 25 µM; M. tuberculosis H37Rv growth with meropenem, percent inhibition; hits of this screen are not shown here;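 active = about 74% or more and at least 40 points above the plate without the antibiotic, then above 30% in a dose series; inconclusive = first-round hits that could not be retested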;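 note: growth measured after seven days incubation then overnight dye step; 0% = bacteria only wells and 100% = bacteria with antibiotic; twin plates without the antibiotic show which effects depend on it; some results filed as inactive read as strong as hits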
Arbovirus anti = antivirals against arbovirus infection, primary screen, cell-based, full library, 10K replicate subset; inhibition, % at 10 µM; 0.37% of 200,000 active; arbovirus infection cell-based antiviral screen;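 active = inhibition from about 30%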;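 note: bluetongue infection of BSR cells; cell survival read as ATP light after 72 h; 0% = infected wells without compound and 100% = uninfected wells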
Arbovirus anti repeat = second read-out of Arbovirus anti, no call of its own (marks repeat the call); inhibition, %; measured here: 10K subset replicate screen; many hits read low in the repeat;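 first of two repeat runs on a subset; 0% = infected and 100% = uninfected wells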
* = called active by the depositor; ? = inconclusive; . = no result given.

SMILES	RecA splice inh	Mtb growth	YopH inh	Mtb bLac sens	Arbovirus anti	others
Cc1ccc(C)c(N2CCN(C(=O)Cc3c(C(=O)O)[nH]c4ccc(Cl)cc34)CC2)c1	-0.4	-5%	.	3	.
CCOC(=O)C1CCN(c2c(NCCCN(CC)c3ccccc3)c(=O)c2=O)CC1	-2.3	-6%	-9	?	8
Cc1ccc(-c2nc(SCC(=O)Nc3ccccc3OC(F)F)c3c(C)c(C(=O)O)sc3n2)cc1	3.0	-3%	.	-6	.
COC(=O)C(CC(=O)c1ccc(C)cc1)n1nc(C)cc1C (stereo not drawn)	-2.4	.	.	-6	.
CCN(c1ccccc1C)S(=O)(=O)c1cc2c3c(c1)CCN3C(=O)CC2	1.9	.	.	-12	.
Cc1ccc(S(=O)(=O)N2CCCC2CNC(=O)c2ccc(F)c(F)c2)cc1 (stereo not drawn)	2.6	.	.	-23	.
O=C(Nc1ccc(N2CCOCC2)cc1)C1CC(=O)N(c2ccccc2)C1 (stereo not drawn)	0.3	4%	.	-5	-6
COc1ccc(CCNC(=O)CN2C(=O)c3cccc4cccc(c34)C2=O)cc1OC	-3.2	-5%	.	8	-11
CC(=O)C[C@H]1c2cc(F)ccc2S(=O)(=O)N1c1ccc(N(C)C)cc1	-6.0	-7%	.	-2	.
CCOC(=O)CSc1nnc([C@@H](NC(=O)OC(C)(C)C)C(C)C)o1	-0.5	-1%	-37	58	3

The last 5 compounds of the section above are carried over, then new ones follow:
SMILES	RecA splice inh	Mtb growth	YopH inh	Mtb bLac sens	Arbovirus anti	others
Cc1ccc(S(=O)(=O)N2CCCC2CNC(=O)c2ccc(F)c(F)c2)cc1 (stereo not drawn)	2.6	.	.	-23	.
O=C(Nc1ccc(N2CCOCC2)cc1)C1CC(=O)N(c2ccccc2)C1 (stereo not drawn)	0.3	4%	.	-5	-6
COc1ccc(CCNC(=O)CN2C(=O)c3cccc4cccc(c34)C2=O)cc1OC	-3.2	-5%	.	8	-11
CC(=O)C[C@H]1c2cc(F)ccc2S(=O)(=O)N1c1ccc(N(C)C)cc1	-6.0	-7%	.	-2	.
CCOC(=O)CSc1nnc([C@@H](NC(=O)OC(C)(C)C)C(C)C)o1	-0.5	-1%	-37	58	3
COc1cccc(N(C(=O)CS(=O)CC(=O)Nc2ccc(F)cc2)C(C(=O)NC2CCCCC2)c2cccs2)c1 (stereo not drawn)	-0.7	5%	-23	4	10
COc1cc2c(cc1OC)CN(Cc1ccccc1)CC2	-1.9	.	.	-5	.
O=C(C1=C[C@H](C2CCCCC2)C[C@H](OCCCCO)O1)N1CCN(Cc2ccc3c(c2)OCO3)CC1	-5.3	11%	.	8	-16
CCOC(=O)N1CCN(C(=O)c2ccc3c(c2)ncn3C2CCCC2)CC1	5.1	16%	-39	3	-3
COc1cc(/C=N/NC(=O)C2CCN(CC(O)COCc3ccccc3)CC2)ccc1O (stereo not drawn)	-3.0	5%	.	1	7
COC(=O)COc1ccc(S(=O)(=O)N2CCN(c3ccccc3F)CC2)cc1C	6.1	-8%	19	-11	-2
Cc1ccc(OCC(O)CNC(=O)c2ccccc2C(=O)O)cc1 (stereo not drawn)	-3.0	2%	-26	-1	2
COC(=O)c1ccc(CN2CCN(C3CCCC3)C(CCO)C2)cc1 (stereo not drawn)	-2.3	-1%	.	4	-2
Cc1c(NC(=O)OCCNC(=O)COc2ccc(Cl)cc2Cl)sc(=S)n1C	-1.9	-8%	-31	8	-4
O=C(NCc1ccco1)c1cc(-c2ccccc2)nc2ccccc12	2.7	10%	-7	17	-4
Cc1cccc(OCC(=O)Nc2ccc(N3CCN(C(=O)c4ccccc4)CC3)cc2)c1C	-0.8	.	.	-7	.
N#Cc1c(NC(=O)/C=C/C(=O)O)sc2c1CCN(Cc1ccccc1)C2	-368	.	.	4	.
Cc1ccccc1NC(=O)c1cnn(-c2ccccc2)c1NC(=O)c1ccco1	1.2	0%	-54	9	9	Arbovirus anti repeat=10
Cc1ccccc1CC(=O)NCCN1CCCCC1	-1.5	.	.	2	.
Cc1ccc(Nc2ncnc3sccc23)c(C)c1	1.6	.	.	4	.
O=C(N/N=C/c1cc(Br)cc(Br)c1O)c1ccncc1	7.1	?	.	100	6
CCN(CC)c1ccc(Nc2cc3n(c(=O)n2)CCc2cc(OC)c(OC)cc2-3)cc1	-2.8	.	.	3	.
COCCNC(=O)CN(CCc1ccccc1)S(=O)(=O)c1ccc(Br)cc1	1.8	.	.	-7	.
CCCCC1(CCCC)NC(=S)N(Nc2ccc(C)cc2)C1=O	-0.3	-2%	-8	0	0
Cc1cc(C)nc(SCC(=O)Nc2ncc3c(n2)CCCC3=O)n1	-1.0	1%	-26	-10	3

4 structures out of the list, ordered by molar mass, descending.
SMILES	RecA splice inh	Mtb growth	YopH inh	Mtb bLac sens	Arbovirus anti	others
COCCNC(=O)CN(CCc1ccccc1)S(=O)(=O)c1ccc(Br)cc1	1.8	.	.	-7	.
Cc1cccc(OCC(=O)Nc2ccc(N3CCN(C(=O)c4ccccc4)CC3)cc2)c1C	-0.8	.	.	-7	.
CCCCC1(CCCC)NC(=S)N(Nc2ccc(C)cc2)C1=O	-0.3	-2%	-8	0	0
Cc1ccccc1CC(=O)NCCN1CCCCC1	-1.5	.	.	2	.

(more compounds)
SMILES	RecA splice inh	Mtb growth	YopH inh	Mtb bLac sens	Arbovirus anti	others
FC(F)(F)c1ccc(Cl)c(NC(=S)NC2CC2)c1	0.3	2%	-17	2	-1
O=C(Cn1ncc(N2CCOCC2)c(Cl)c1=O)c1ccc(Cl)cc1	3.1	6%	.	0	-1
CC(=O)O[C@H]1CC[C@@]2(C)C(CCC3C2CC[C@]2(C)OC(=O)CCC32)C1 (stereo partly drawn)	7.7	-10%	12	-4	8
O=C(NCc1cccnc1)c1cccn2c(=O)c3sccc3nc12	-23	-3%	-32	10	5
CCCc1cc(CNC(=O)C2CCC(=O)N(Cc3ccccc3F)C2)on1 (stereo not drawn)	-2.5	.	.	-8	.
C=CCOc1ccc(/C(CC)=N/O)c(OC)c1	11	6%	-25	-22	3	Arbovirus anti repeat=0
Cc1cc(C(=O)NC(=S)Nc2ccccc2N2CCOCC2)ccc1[N+](=O)[O-]	-0.7	5%	-9	-2	12
COCCNC(=O)/C(C#N)=C/c1cc(C)n(C2CCCCC2)c1C	-1.2	-6%	.	4	-9
COc1ccc(CNC(=O)C/C(C)=N/NC(=O)Cc2ccc(OC)c(OC)c2)cc1	-4.7	5%	-14	3	-2
O=C(NC1CCCCC1)N1CCc2ccccc2C1	0.9	-3%	.	-12	1
Cc1cccc(C)c1Nc1nnc(SCc2nc3ccccc3c(=O)[nH]2)s1	-1.2	3%	-32	3	3
COC(=O)[C@@H]1C[C@@]2(O)[C@H](O)[C@H](O)[C@H](O)C[C@H]2N1CC1CC1	-1.9	-1%	.	-6	.
Nc1nc(SCC(=O)Nc2ccc(Oc3ccccc3)cc2)n[nH]1	0.6	57%	-29	52	-19
O=C(Nc1ccccc1C(=O)O)c1cncc(Br)c1	-1.0	-4%	-29	-15	7
O=C(Nc1nccs1)c1cc(S(=O)(=O)N2CCOCC2)ccc1Cl	1.4	-3%	.	-4	8	Arbovirus anti repeat=4
CC1CCN(c2ccc(S(=O)(=O)Nc3cc(C(=O)O)cc(C(=O)O)c3)cc2[N+](=O)[O-])CC1	-0.7	.	.	-2	.
C=CCN(c1ccccc1)S(=O)(=O)c1cccc(C(=O)NC2CCN(Cc3ccccc3)CC2)c1	3.3	.	.	17	.
CSc1ccccc1NC(=S)Nc1ccc(S(N)(=O)=O)cc1	-4.1	-1%	.	1	-3
CCOc1cc(C(=O)OCC(=O)c2c(N)n(C)c(=O)n(C)c2=O)cc(OCC)c1OCC	4.2	-9%	-10	-1	-1
Cc1ncoc1C(=O)N1CCCC(C(=O)c2cccc(OC(C)C)c2)C1 (stereo not drawn)	3.0	1%	.	-11	16

No new results follow: 2 of the compounds above.
SMILES	RecA splice inh	Mtb growth	YopH inh	Mtb bLac sens	Arbovirus anti	others
CCOc1cc(C(=O)OCC(=O)c2c(N)n(C)c(=O)n(C)c2=O)cc(OCC)c1OCC	4.2	-9%	-10	-1	-1
Cc1ncoc1C(=O)N1CCCC(C(=O)c2cccc(OC(C)C)c2)C1 (stereo not drawn)	3.0	1%	.	-11	16

Further structures.
SMILES	RecA splice inh	Mtb growth	YopH inh	Mtb bLac sens	Arbovirus anti	others
Cc1c(Nc2ncccc2C(=O)O)cccc1C(F)(F)F	0.3	.	.	5	.
Cc1cccc(NC(=O)Cn2cc(C(=O)C3CC3)c3ccccc32)c1	-0.7	.	.	-2	.
O=C(Nc1nccs1)OCc1ccccc1	1.9	.	.	-1	.
Cc1cc(N2CCN(C)CC2)nc2ccc(NC(=O)CCC(=O)NCCC(C)C)cc12	-1.6	3%	.	1	-2
Cc1ccc(O)c(C=Nc2ccc3[nH]ncc3c2)c1	2.1	1%	-7	2	-5
Cc1cc(Oc2ccc(N)cn2)ccc1Cl	2.1	77%	.	86	.
Cc1ccc(-c2noc(CCC(N)=O)n2)cc1	-1.0	-2%	-26	-2	5
O=C1NC2=C(CCc3ccccc32)C(c2ccc(Br)cc2)N1 (stereo not drawn)	.	0%	-8	3	6
C=CCOc1ccc(C2NC(=S)NC(C)=C2C(=O)c2ccccc2)cc1OC (stereo not drawn)	1.3	-2%	-39	-6	19
O=C(CCn1c(=O)oc2ccccc21)Nc1ccc(C(=O)O)cc1	5.8	.	.	-1	.
Cc1c(Cl)c(C(=O)N2CCCCCC2)nn1C	-0.2	.	.	-2	.
Nc1nc(SCC(=O)N2CCCCC2)[nH]c(=O)c1NC(=O)c1cccs1	2.4	-3%	.	2	.
FC(F)Oc1ccc(NC(=S)NN2CCOCC2)cc1	-2.1	-4%	-20	-4	0
CCC(=O)Nc1cc(C(=O)O)ccc1S(=O)(=O)c1ccc(C)cc1	0.5	-8%	-35	6	5
Cc1noc(/C=C/N(C)C)c1S(=O)(=O)N1CCCC(C(=O)N2CCc3ccccc32)C1 (stereo not drawn)	.	.	2	-3	1	Arbovirus anti repeat=-9
Cc1c(NC(=S)NC(=O)c2ccccc2Cl)c(=O)n(-c2ccccc2)n1C	1.7	.	.	0	.
Cc1ccc2sc(C)[n+](CCO)c2c1	-2.1	3%	.	1	-4
Cc1c(C(=O)N2CCN(C)CC2)oc2ccc(Br)cc12	1.3	.	.	-6	.
COCCn1c(SCC(=O)N2CCOCC2)nc2c(c1=O)SCC2	-1.1	.	.	-16	.
C/C(N)=C(/C#N)C(=O)COC(=O)c1cc(-c2ccc(Br)cc2)nc2ccccc12	0.5	11%	-3	-1	-6

Two records drawn at random from those above, as already listed:
SMILES	RecA splice inh	Mtb growth	YopH inh	Mtb bLac sens	Arbovirus anti	others
Cc1ccccc1NC(=O)c1cnn(-c2ccccc2)c1NC(=O)c1ccco1	1.2	0%	-54	9	9	Arbovirus anti repeat=10
COc1ccc(CCNC(=O)CN2C(=O)c3cccc4cccc(c34)C2=O)cc1OC	-3.2	-5%	.	8	-11

Continuation:
SMILES	RecA splice inh	Mtb growth	YopH inh	Mtb bLac sens	Arbovirus anti	others
CCCCc1ccc(NC(=S)NCCN2CCOCC2)cc1	-1.5	17%	.	0	0
O=C(NCCN1CCN(c2ccccc2F)CC1)C1CC(=O)N(C2CCCC2)C1 (stereo not drawn)	.	6%	-13	13	-3
O=C(NC(=S)Nc1ccc(S(=O)(=O)Nc2nccs2)cc1)c1ccc(F)cc1	1.8	7%	-12	1	-6
CCOc1ccccc1NC(=O)c1cc(SC)ccc1Cl	1.5	19%	.	99	-9
CNC(=O)c1ccc(Nc2nnc(-c3ccc(O)cc3)c3ccccc23)cc1	1.7	.	.	-10	.
Cc1ccc2c(c1)C1CN(C)CCC1N2S(=O)(=O)c1ccccc1 (stereo not drawn)	2.2	-5%	-15	8	3

A portion of the library (hit frequency here may not be typical).
